# UUG fidelity – modulators of yeast start codon fidelity, primary screen, whole organism, S. cerevisiae, single point, plate reader. activity score, % at 18.7 µM. AID 602363, 2012. S. cerevisiae UUG-firefly luciferase reporter, luminescence/redox ratio. 0.13% of 350,000 active;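 active = replicate mean at a twofold rise or more, about +100% in these data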;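 also: firefly luciferase made from a UUG start codon reports start codon fidelity; reporter light over untreated wells divided by growth signal over untreated wells; some hits fall short of that in this replicate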
# Rce1 inh – yeast Rce1p protease inhibitors, primary screen, biochemical, fluorescence, cell-free homogeneous. CAAX prenyl protease 2 (Saccharomyces cerevisiae (strain ATCC 204508 / S288c)), Q03530. yeast membranes, quenched prenylated peptide cleavage fluorescence. calls only. 0.27% of 290,000 active;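 active = fall in fluorescence gain of 50% or more versus controls, with final raw signal at or below 3038400; inconclusive = same 50% fall but final raw signal above 3038400; inactive = fall in fluorescence gain under 50%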;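 also: plate controls were neutral control wells for no effect and wells lacking membranes for full effect; tested at 10 µM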
# Target sequence (Q03530 whole entry, looked up): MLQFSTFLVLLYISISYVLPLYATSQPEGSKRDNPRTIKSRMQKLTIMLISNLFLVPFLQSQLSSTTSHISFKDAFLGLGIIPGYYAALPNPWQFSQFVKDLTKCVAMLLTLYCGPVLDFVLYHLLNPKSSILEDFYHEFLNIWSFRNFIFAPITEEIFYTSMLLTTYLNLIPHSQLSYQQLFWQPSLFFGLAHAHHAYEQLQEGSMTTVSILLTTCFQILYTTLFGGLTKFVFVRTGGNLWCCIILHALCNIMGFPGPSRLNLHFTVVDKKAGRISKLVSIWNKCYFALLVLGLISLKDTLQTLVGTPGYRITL
# PABP FP inh – PABP poly(A) RNA binding inhibitors, primary screen, biochemical, fluorescence polarization, uHTS; inhibition, % at 35 µM; 1% of 290,000 active;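 active = 50% or more with normal probe brightness, or confirmed in later tests; inconclusive = above 50% with abnormal brightness, or retests that disagree; inactive = below 50% or failed in later tests; about a fifth of its hits are not listed in these tables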;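 also: calls also rest on retests at 20 µM and on dose response follow-up; controls were probe without protein and protein plus probe with vehicle; some compounds called inactive have numbers as strong as hits; many hits fall short of the cut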
# Target sequence (P11940 whole entry, looked up): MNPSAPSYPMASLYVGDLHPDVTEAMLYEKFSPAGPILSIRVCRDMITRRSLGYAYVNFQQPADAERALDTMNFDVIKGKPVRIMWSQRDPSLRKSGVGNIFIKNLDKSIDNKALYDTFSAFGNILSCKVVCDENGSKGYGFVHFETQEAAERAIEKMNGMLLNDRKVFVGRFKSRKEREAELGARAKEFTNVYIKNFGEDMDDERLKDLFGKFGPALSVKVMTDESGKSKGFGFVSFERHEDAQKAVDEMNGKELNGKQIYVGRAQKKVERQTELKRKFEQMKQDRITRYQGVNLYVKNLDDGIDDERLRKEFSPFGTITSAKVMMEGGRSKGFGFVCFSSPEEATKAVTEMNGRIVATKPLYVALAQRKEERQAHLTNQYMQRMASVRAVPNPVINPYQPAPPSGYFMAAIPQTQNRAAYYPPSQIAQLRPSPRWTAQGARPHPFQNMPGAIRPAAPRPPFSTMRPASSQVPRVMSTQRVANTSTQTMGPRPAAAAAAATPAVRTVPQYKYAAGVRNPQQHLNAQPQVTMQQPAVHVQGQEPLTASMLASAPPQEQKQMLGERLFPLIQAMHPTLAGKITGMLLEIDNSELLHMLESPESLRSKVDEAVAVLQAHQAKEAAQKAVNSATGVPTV
# CSC inhib – cancer stem cell viability inhibitors, primary screen, luminescence; cancer stem cell-like cells viability; inhibition, % at 7.5 µM; 1.1% of 300,000 active;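 active = mean at 75% or more and at least half the replicates too; inconclusive = mean and replicates disagree; tested in HMLE shEcad cells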;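 also: 0% = median of negative and 100% = median of positive control wells; the first replicate is given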
# MT1-MMP act inh – blockers of MT1-MMP proenzyme processing, primary screen, HT1080 RFP-PRO-GFP cells, GFP/RFP fluorescence. Matrix metalloproteinase-14 (Homo sapiens), P50281. GFP/RFP ratio fluorescence, overnight; percent of plate control window, DMSO zero. GFP/RFP ratio change, % at 20 µM. 0.061% of 360,000 active;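 active = GFP/RFP ratio change of at least 30% with cell ATP level not reduced by more than half and red fluorescence within 50% of control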; also: strong numbers were not always called active
#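 Material: RFP-PRO-GFP reporter HT1080 cells. Dosing: single-point 20 µM compound, 1% DMSO. Controls: DMSO and RFP-L50D-GFP cell wells. Timing: cells overnight before dosing, compound overnight, 37 °C, 5% CO2. Measure: GFP/RFP fluorescence ratio.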
# eIF4H inh – human eIF4H binding inhibitors, primary screen, translation initiation inhibitor project, biochemical, uHTS, fluorescence polarization; inhibition, % at 35 µM; AID 2012, 2009; 0.94% of 290,000 active; eIF4H fluorescence polarization binding assay;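 active = 50% or more with normal probe brightness, or confirmed in later tests; inconclusive = above 50% with abnormal brightness, or retests that disagree; inactive = below 50% or failed in later tests; about a fifth of its hits are not listed in these tables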;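 also: calls also rest on retests at 20 µM and on dose response follow-up; 0% = protein and probe with vehicle and 100% = probe without protein; strong numbers were not always called active; many hits fall short of the cut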
# HIV Env fusion – inhibitors of HIV-1 Env-driven cell-cell fusion, primary screen, HeLa-JRFL effector, CEM21 target cells, luciferase | 1.1% of 360,000 active | inhibition, % at 12.3 µM;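 active = mean replicate inhibition score of at least 50 and every replicate individually at or above 50; inconclusive = only one of the two criteria met; inactive = mean below 50 and not all replicates reaching 50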;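 also: 0% = plate neutral controls and 100% = maraviroc near 300 nM; one replicate is shown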
# eIF4H inh retest – further read-out of eIF4H inh, marked with its call; inhibition, %; compound at 20 µM; confirmation average;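 mean of two retest wells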
# PABP FP inh retest – recorded beside PABP FP inh, whose call it bears; inhibition, %; compound at 20 µM; confirmation repeats;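 mean of two retest wells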
# MT1-MMP act inh RFP – recorded beside MT1-MMP act inh, whose call it bears; RFP signal change, %; measured here: RFP expression control read;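 0 = vehicle wells; hits needed this value within 50% of zero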
# Starred values were filed as active, the others as inactive; i = inactive; ? = inconclusive; . = no result given. The list is partial; the hit share may differ from the screen's.
SMILES,UUG fidelity,Rce1 inh,PABP FP inh,CSC inhib,MT1-MMP act inh,MT1-MMP act inh RFP,eIF4H inh,HIV Env fusion,others
C=COCCn1c(C)c(C(C)=O)c2cc(O)ccc21,-19,i,8,-5,-13,-8,-4,5,
CC(C)C1C(C#N)=C(N)Oc2c1c(=O)oc1ccccc21 (stereo not drawn),6,.,.,.,4,6,.,-12,
O=C1NC(=S)NC(=O)C1C1CCCCC1,.,i,-4,6,-2,-2,2,0,
CCOC(=O)C1SC2(C(F)(F)F)CC1(O)c1c(C)cc(C)nc1O2 (stereo not drawn),1,i,-7,-4,-3,2,-7,46,
CC(NC(=O)Cc1cccc2ccccc12)C(=O)N1CCC(=O)CC1 (stereo not drawn),.,i,-12,0,0,5,-15,-14,
COP(=O)(OC)C(Nc1ccccn1)c1ccccc1 (stereo not drawn),-10,i,0,9,1,6,-7,.,
CC(=NC(C)c1ccccc1)c1c(O)[nH]c(=O)[nH]c1=O (stereo not drawn),-2,i,-8,-6,6,-1,-1,-35,
NC(Cc1ccccc1)c1nn[nH]n1 (stereo not drawn),-16,.,.,.,2,3,.,-1,
COC(=O)C1=C(c2ccc(OC(F)(F)F)cc2)C[C@@H]2CC[C@H]1N2C(=O)NC(C)C,-2,.,.,-2,3,-2,.,-31,
CCOC(=O)N(c1ccccc1)P1(=S)OCCO1,6,i,-3,-1,4,3,5,.,
COC(=O)C1=C(c2ccc(OC(F)(F)F)cc2)C[C@@H]2CC[C@H]1N2C(=O)NCCCOC(C)C,-12,.,.,22,-3,-2,.,-7,
CN1CCN(c2ccc(C(N)=O)cc2N)CC1,-22,i,-2,4,-1,1,-4,-10,

# Not a retest: an excerpt of the list.
SMILES,UUG fidelity,Rce1 inh,PABP FP inh,CSC inhib,MT1-MMP act inh,MT1-MMP act inh RFP,eIF4H inh,HIV Env fusion,others
C=COCCn1c(C)c(C(C)=O)c2cc(O)ccc21,-19,i,8,-5,-13,-8,-4,5,
CC(C)C1C(C#N)=C(N)Oc2c1c(=O)oc1ccccc21 (stereo not drawn),6,.,.,.,4,6,.,-12,
O=C1NC(=S)NC(=O)C1C1CCCCC1,.,i,-4,6,-2,-2,2,0,
CCOC(=O)C1SC2(C(F)(F)F)CC1(O)c1c(C)cc(C)nc1O2 (stereo not drawn),1,i,-7,-4,-3,2,-7,46,
CC(NC(=O)Cc1cccc2ccccc12)C(=O)N1CCC(=O)CC1 (stereo not drawn),.,i,-12,0,0,5,-15,-14,

# The results go on.
SMILES,UUG fidelity,Rce1 inh,PABP FP inh,CSC inhib,MT1-MMP act inh,MT1-MMP act inh RFP,eIF4H inh,HIV Env fusion,others
COc1ccc(N2C(=O)/C(=C/c3ccco3)C(=O)NC2=S)cc1,-20,i,39*,1,-13,16,75*,-3,eIF4H inh retest=76*;PABP FP inh retest=73*
CC1N(O)C2CCCCCC2N1O (stereo not drawn),1,i,6,-15,2,1,-8,.,
O=c1cc(C(F)(F)F)c2cc3c4c(c2o1)CCCN4CCC3,.,i,125*,12,-193,4,?,.,PABP FP inh retest=100*
Cc1ccc(-n2c(C)cc(/C=C3/C(=O)NC(=O)N(Cc4ccco4)C3=O)c2C)cc1,-12,i,-15,.,-6,-2,?,3,
O=C(COc1ccccc1)N1CCN(CCN2C(=O)c3cccc4cccc(c34)C2=O)CC1,.,i,-12,4,3,-5,-6,-9,
c1ccc2sc(NC3=NCCN3)nc2c1,.,i,-8,-30,-6,6,-3,.,
COc1ccc(C(=O)C2CCCN(Cc3cccc(C)n3)C2)c(OC)c1 (stereo not drawn),-23,i,59*,0,1,-1,92*,10,
COc1ccc(N2C(=O)NC(=O)/C(=C/c3cccc(OC(=O)c4cccs4)c3)C2=O)cc1Cl,.,i,19,23,.,.,?,-1,
COc1ccc(CC(C)NC2CCCCCC2)cc1 (stereo not drawn),-20,i,-2,-5,0,-2,2,-5,
CC[N+]12CCC(CC1)C(C(O)(c1ccccc1)c1ccccc1)C2 (stereo not drawn),-6,i,-2,-12,-13,-3,-6,-13,
CCN1C[C@]2(CO)CC[C@H](OC)[C@@]34C5C[C@H]6[C@H](OC)C5[C@](O)(C[C@H]6OC)[C@@](O)(C(OC)C23)[C@@H]14 (stereo partly drawn),-16,i,.,-9,2,3,.,.,
O=C(CN1CCCCC1)c1ccc(F)cc1,.,i,-5,-9,-1,2,-4,0,
Cc1ccc2c(c1)CC1(CN2C)C(=O)NC(=O)N(c2cc(C)ccc2C)C1=O (stereo not drawn),1,i,16,4,-14,-22,-4,11,
COC(=O)C1=C(c2ccc(Cl)c(C(F)(F)F)c2)C[C@@H]2CC[C@H]1N2C(=O)N1CCC(C)CC1,-1,.,.,53,-4,-9,.,.,
CC(C)c1ccc(O)c(CN2CCN(c3ccccc3)CC2)c1,-3,i,-4,13,-4,-1,-14,-6,
COc1cc(C)c(CN2CC=C(c3ccc(F)cc3)CC2)cc1C,-10,i,14,27,-3,-24,-3,17,
CNC(=O)NC(O)C(Cl)(Cl)Cl (stereo not drawn),-9,i,0,-8,-1,-1,-16,1,
O=C(c1ccc(Cl)cc1)N1CCC2(CC1)OCCO2,-12,.,0,6,-1,0,2,-13,
OCC1(CO)COC(c2cccnc2)N1 (stereo not drawn),-9,i,-7,.,18,72,6,11,
CCCOP(=O)(O)c1c([N+](=O)[O-])cc(C(F)(F)F)cc1[N+](=O)[O-] (tested in a mixture with another compound),-20,i,35,3,5,6,3,.,
Cc1ccc(NP(=O)(Oc2ccccc2)Oc2ccccc2)cc1,21,.,.,.,2,5,.,-2,
Cc1cc(/C=C2\C(=O)NC(=O)N(c3cccc(F)c3)C2=O)c(C)n1-c1ccc(C(=O)O)c(Cl)c1,8,i,-25,-14,-27,7,30,-13,
COc1ccc(C2(C#N)CCN(C)CC2)cc1,-16,i,-12,-9,1,4,-10,-23,
COc1ccc(CC(=O)Nc2ccc(C#N)c(Cl)c2)cc1S(=O)(=O)N1CCOCC1,-8,i,-1,1,5,-3,2,.,
CC(=O)O[C@@H]1[C@H]2CC[C@@H]3[C@]1(C[C@@H](OC(C)=O)[C@@]1(O)C([C@@H]4O[C@@H]4C1(C)C)[C@]3(C)O)C[C@@]2(C)O (stereo partly drawn),-12,i,3,-3,0,-1,1,7,
O=C1NC(=O)C(=Cc2coc3ccccc3c2=O)C(=O)N1,.,i,0,.,-3,5,83,3,eIF4H inh retest=44;PABP FP inh retest=20
C[C@]12CC[C@H](O)CC1=C([N+](=O)[O-])CC1C2CC[C@@]2(C)C1CC[C@@H]2O (stereo partly drawn),3,.,.,20,-1,-4,.,-113,
Cn1cccc1/C=C1\C(=O)NC(=O)N(Cc2ccccc2)C1=O,.,i,45*,1,-22,10,?,-43,PABP FP inh retest=90*
C=C1C(=O)O[C@@H]2C[C@@H](C)[C@@H]3C4OC4C(=O)[C@@]3(C)[C@@H](O)[C@H]12 (stereo partly drawn),-1,i,8,75*,10,-27,-1,-341,
C[C@]12CCC3C(CC[C@H]4C[C@H](O)CC[C@]34C)C1CCC2=O (stereo partly drawn),7,.,.,-1,4,1,.,-1,
COCCOC(=O)C1=C(N)Oc2c(c(=O)oc3ccccc23)C1c1ccncc1 (stereo not drawn),-21,i,-6,.,-6,7,2,-17,
CN1C[C@H](CO)C=C2c3cccc4[nH]cc(c34)C[C@H]21,-23,i,?,-7,-49,-9,?,.,
O=C1Nc2ccc(Br)cc2C(c2ccccc2)=NC1O (stereo not drawn),-9,i,6,-9,-3,1,10,-8,
CCOC(=O)C1(CCOc2ccccc2)CCN(Cc2cccc(O)c2)CC1,8,i,2,40,-11,-6,0,6,
CC(C)COP(=O)(OCC(C)C)C(O)c1cccnc1 (stereo not drawn),-10,i,5,-14,6,6,-5,-12,
CCN1CCN(Cc2cc3c(cc2[N+](=O)[O-])OCO3)CC1,-7,i,27,5,-2,0,14,-9,
CC(C)NS(=O)(=O)c1ccc(OCC(=O)N2CCN(C)CC2)cc1,-16,i,-6,-1,4,5,-1,-8,
O=C1C(Br)C2CCC1C2C(=O)O (stereo not drawn),-13,.,.,.,0,0,.,-2,
CCCCOP(=O)(CN1CCOCC1)OCCCC,7,i,-11,-4,-1,3,-3,.,
CC(=O)N1Cc2cnnn2-c2ccccc2C1(C)C#N (stereo not drawn),-16,.,.,.,7,4,.,2,
CCN(CC)P(=O)(Oc1ccccc1)Oc1ccccc1,-20,i,3,-7,3,-6,9,10,
O=C(c1ccc(Cl)cc1)C1CCCN(Cc2cccc3cccnc23)C1 (stereo not drawn),1,i,7,19,-5,-2,-1,-7,
Cc1ccc(N/N=C/c2c(O)n(-c3ccccc3)c(=O)[nH]c2=O)cc1,-33,i,4,96*,0,5,1,1,
CCOC(=O)c1sc(N=Nc2c(O)[nH]c(=O)[nH]c2=O)c(C(=O)OCC)c1C,.,i,18,-8,.,.,-6,.,
COc1ccccc1/C=N/N=C(/N)N[N+](=O)[O-],-14,i,-15,-11,2,3,-5,.,
CN1CCC(n2nccc2N)CC1,-25,i,-2,-9,2,2,1,.,
N/C(=N\[N+](=O)[O-])NCCCC(NC(=O)CNC(=O)c1ccccc1)C(=O)O (stereo not drawn),.,i,-10,1,2,4,-1,21,
Cc1nn(C)c(C)c1/C=C1/CC2C3CC=C4CC(O)CCC4(C)C3CCC2(C)C1=O (stereo not drawn),-4,i,-2,1,1,-1,7,13,
O=C(Cc1ccccc1)OCC(=O)c1ccc(F)cc1,-18,.,.,-19,3,1,.,2,
CCCCCn1c(=O)c(C(=O)Nc2cnccn2)c(O)c2ccccc21,-10,i,-4,0,-8,-22,-7,-1,
CN1CCCN(c2ccc([N+](=O)[O-])nc2)CC1,-14,i,-3,-13,1,3,14,0,
COc1ccc(CCNCc2ccc(C)s2)cc1OC,.,i,6,-12,2,5,2,20,
CC(=O)OC1CCC2(/C=N/O)C(=CCC3C4CCC(=O)C4(C)CCC32)C1 (stereo not drawn),-4,i,5,-7,3,1,-3,-7,
Cc1ccccc1C1=NCC(=O)N(CC(=O)N2CCCCC2)c2sc(C)c(C)c21,5,i,-8,-9,2,-7,6,-91,
CCOC(=O)C1(CCOc2ccccc2)CCN(Cc2ccc(C)s2)CC1,6,i,2,41,-2,-12,-5,14,
CCCCOc1ccc(CC2C(=O)N(C)C(=O)N(C)C2=O)cc1,-11,.,-10,13,4,1,-12,-100,
CCCCn1c(O)c(C(=O)/C=C/c2ccc3c(c2)OCO3)c(=O)[nH]c1=O,5,i,9,-6,-5,1,-7,3,
CCOC(=O)C(NC(=O)CCl)(Nc1ccc(C(O)(C(=O)OCC)C(F)(F)F)cc1)C(F)(F)F (stereo not drawn),2,i,18,-10,1,2,24,11,
c1ccc(C(c2ccccc2)c2cccnc2)cc1,-21,.,.,.,-1,-3,.,22,
CC(C)(C)C(=O)N1Cc2cc(-c3ccccc3)ccc2-n2nncc2C1,-18,.,.,.,-4,-2,.,9,
